# GLA inh pH 4.5: qHTS Assay for Inhibitors of Human alpha-Galactosidase at pH 4.5; Alpha-galactosidase A (Homo sapiens), P06280; purified enzyme, 4-MU-alpha-Gal fluorescence, pH 4.5; activity change, negative = inhibition, % at 105 µM; 230,000 tested, under 10 active; AID 1467, 2008; inconclusive = small, poorly fitted or top-dose-only inhibition, or a rising curve; inactive = flat fitted curve, though single readings scatter; no compound was filed as active;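 also: 0% = full activity with enzyme and -100% = basal without enzyme; dose as in the result columns while the protocol names 77 µM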
# Rango-impB inh: qHTS Assay for Inhibitors of Rango (Ran-regulated importin-beta cargo) - Importin beta complex formation; Potency, µM (titrated, usually from 92.2 µM), for inactives: at the highest dose inhibition of complex formation; Importin subunit beta-1 (Homo sapiens), Q14974; Rango CFP/YFP FRET sensor + importin beta, 45 min; AID 540263, 2011; 340,000 compounds, 0.031% hits; active = rising FRET ratio curve, often small or poorly fitted; inconclusive = mostly compound fluorescence or quenching in the first reads; inactive = flat curves in all reads;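 also: potency is read from the fitted curve at half-maximal effect; 0% = DMSO wells and 100% = buffer wells lacking importin beta; nearly all actives have a fitted effect of over 15% in size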
# Target sequence (Q14974 whole entry, looked up): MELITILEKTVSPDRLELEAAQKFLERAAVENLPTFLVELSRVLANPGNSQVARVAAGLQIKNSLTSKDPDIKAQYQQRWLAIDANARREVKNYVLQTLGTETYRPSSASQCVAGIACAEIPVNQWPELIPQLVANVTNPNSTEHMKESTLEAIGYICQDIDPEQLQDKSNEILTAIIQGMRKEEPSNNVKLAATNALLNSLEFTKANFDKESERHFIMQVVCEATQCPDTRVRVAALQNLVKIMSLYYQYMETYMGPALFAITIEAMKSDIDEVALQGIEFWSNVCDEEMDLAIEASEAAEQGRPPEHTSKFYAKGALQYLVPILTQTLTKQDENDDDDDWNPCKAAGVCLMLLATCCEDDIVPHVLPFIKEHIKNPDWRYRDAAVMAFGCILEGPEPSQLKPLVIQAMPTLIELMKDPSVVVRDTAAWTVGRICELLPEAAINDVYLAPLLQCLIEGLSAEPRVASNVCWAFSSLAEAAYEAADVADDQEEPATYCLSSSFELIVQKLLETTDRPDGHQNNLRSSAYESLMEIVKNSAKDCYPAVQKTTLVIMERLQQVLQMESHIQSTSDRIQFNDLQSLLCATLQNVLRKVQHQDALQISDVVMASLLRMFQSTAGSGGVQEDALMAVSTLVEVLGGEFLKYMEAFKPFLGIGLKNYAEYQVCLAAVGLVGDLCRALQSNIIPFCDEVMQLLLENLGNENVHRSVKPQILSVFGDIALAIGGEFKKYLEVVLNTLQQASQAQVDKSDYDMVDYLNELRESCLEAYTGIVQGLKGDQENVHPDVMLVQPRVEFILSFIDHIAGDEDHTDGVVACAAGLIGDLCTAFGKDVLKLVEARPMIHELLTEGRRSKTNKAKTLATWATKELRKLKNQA
#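 Inhibition scored from the CFP 486 nm/YFP 530 nm FRET ratio 45 min after adding 0.125 microM importin beta to 50 nM Rango biosensor preincubated 5 min with compound (room temperature, PBS with DTT, Tween-20, BSA). No-importin wells as positive control.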
# Rango release inh: qHTS Assay for Inhibitors of RanGTP induced Rango (Ran-regulated importin-beta cargo) - Importin beta complex dissociation | Biochemical FRET Rango-importin beta, RanGTP-induced dissociation | Potency, µM (doses to about 46.1 µM), for inactives: top-dose activity change, negative = inhibition | 340,000 compounds, 0.071% hits | AID 540253, 2011; active means falling FRET ratio curve, often poorly fitted, with flat reads before Ran was added; inconclusive means other falling curves, or compound fluorescence or quenching; inactive means flat or rising ratio curve;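 also: potency is read from the fitted curve at half-maximal effect; % of control where 0% means no effect; nearly all actives have a fitted effect of over 45% in size; -100% = wells without RanGTP and RCC1; the record marks most hits as doubtful in a second field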
#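 Rango FRET biosensor (snurportin-1 IBB flanked by N-terminal EYFP and C-terminal CFP10) at 0.1 uM, with 0.25 uM importin beta in PBS, 1mM DTT, 0.02% Tween-20, 0.1% BSA. 0.6 uM Ran, 2mM GTP and 0.2 uM RCC1 were then added for 45 min at room temperature. Inhibition read as loss of FRET rise.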
# miR-21 FLuc: qHTS Assay for Modulators of miRNAs and/orActivators of miR-21; HeLa miR-21 FLuc reporter, luciferase, 48 h; Potency, µM (top dose mostly 38.3 µM), inactives show at the top dose reporter change, positive = more light; 340,000 tested, under 10 active; AID 2288, 2010; active = well fitted rising curve with a large enough effect; inconclusive = small, poorly fitted or top-dose-only effect; inactive = no such curve, though single readings can be large or run the other way;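 also: % of control where 0% means no effect; miR-21 action dims this reporter so a rising signal means less miR-21 action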
#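 HeLa miR-21-FLuc reporter line, endogenous miR-21; 2000 cells/well in DMEM/10% FBS; compound titration up to ~40uM final, 48 h, 37 degree Celsius; luciferase detection reagent, 15 min lysis, CCD luminescence.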
# * hit, by the source's call; ? = inconclusive; / = no result given. Some of the compounds tested; the hit share may differ from the screen's.
miR-21 FLuc | Rango-impB inh | GLA inh pH 4.5 | Rango release inh | mol
-5% | -0.2% | 3 | 7% | COc1ccc(-c2nn(-c3ccccc3)cc2/C=N/NC(=S)NC(C)C)cc1OC
/ | -1.5% | / | 0% | CC(=O)NCCC(=O)Nc1cc(S(=O)(=O)N2CCOCC2)ccc1Oc1ccc(F)cc1
-2% | ? | 7 | -13% | COc1ccc(/C=C2\SC(=S)N(CC(=O)NNC(=O)c3ccncc3)C2=O)cc1
14% | / | -1 | / | COc1cccc(N(C(=O)C2COc3ccccc3O2)C(C(=O)NC2CCCCC2)c2ccc(O)cc2)c1 (stereo not given)
-2% | -1.7% | / | 33% | COc1ccccc1NC(=O)C1CCCN(S(=O)(=O)c2c(C)noc2C)C1 (stereo not given)
-21% | -1.9% | -17 | 1% | O=C(NC(=Nc1nc2ccccc2o1)NC(=O)c1ccccc1)c1ccccc1
3% | ? | / | ? | CCN1CCc2c(sc(NC(=O)Cc3ccccc3)c2C(N)=O)C1
-63% | 4.7% | -26 | 20% | COc1cc(CNc2ccc(NC(C)=O)cc2)ccc1OCc1ccccc1C
-6% | 1.4% | -2 | 3% | CCn1c(=O)n(CC(=O)NCc2ccccc2OC)c(=O)c2ccccc21
6% | -0.3% | -16 | ? | Cc1ccnc(SCC(=O)N2CCc3ccccc3C2)n1
-37% | 3.0% | 1 | 9% | CCc1ccc2nc(NC(=O)CSCc3c(C)noc3C)sc2c1
-5% | ? | / | ? | CN1CCN(NC(=O)c2cc(-c3ccc(Br)s3)nc3ccccc23)CC1
/ | -1.0% | / | 21% | CC(C)N(C(=O)[C@H]1C[C@H](CC(=O)NCC23CC4CC(CC(C4)C2)C3)C(=O)N2CCc3c([nH]c4ccc(Cl)cc34)[C@]12C)C(C)C
-61% | ? | -11 | ? | C/C(=N\Nc1ccc([N+](=O)[O-])cc1)c1ccco1
-7% | -3.8% | 7 | -6% | O=C(Nc1cccn(Cc2cccc(F)c2)c1=O)NC1CCCCC1
6% | -2.3% | -4 | 1% | COc1ccccc1N(Cc1cc(=O)[nH]c2ccccc12)C(=O)c1cccc([N+](=O)[O-])c1
-1% | -0.4% | 0 | -9% | CC(=O)NNc1cc(=O)c2c(=O)n(C)c(=O)n(C)c2[nH]1
-4% | 0.9% | 6 | 1% | O=C(C(=O)N1CCCc2ccccc21)N1CCCc2ccccc21
-10% | 1.7% | 3 | 20% | O=C(CN1C(=O)NC2(CCCCCCC2)C1=O)N1CCc2ccccc2C1
-5% | 3.9% | -5 | 0% | Cc1cc(Br)cc2c(C(=O)Nc3c(C)n(C)n(-c4ccccc4)c3=O)cc(-c3cccs3)nc12
-2% | 1.0% | 9 | -1% | CNC(=S)NCCc1c[nH]c2ccc(OC)cc12
21% | ? | 9 | -23% | Cc1ncc(CO)c(/C=N/NC(=S)Nc2ccc(C(C)C)cc2)c1O
0% | -1.3% | -11 | -1% | O=C(N/C=C\n1cnc2cc(C(F)(F)F)ccc21)c1ccc([N+](=O)[O-])cc1
0% | -5.0% | / | -6% | COCCNC(=O)c1cn(CCOC)c(=O)c2c1c1ccccc1n2C
-27% | -3.4% | 7 | 5% | Cc1ccn2cc(CSc3ccccc3)nc2c1

# Additional structures follow:
miR-21 FLuc | Rango-impB inh | GLA inh pH 4.5 | Rango release inh | mol
-3% | 4.2% | -5 | 13% | Cc1nc(S/C(C(=O)O)=C2/C(=O)Nc3ccccc32)n[nH]1
7% | 2.7% | 2 | 10% | CC1CCN(C(=O)c2scc3c2OCCO3)CC1
-9% | -1.3% | -1 | 0% | COc1cc(C(=O)NCCC(=O)NCCc2ccc(Cl)cc2)cc(OC)c1OC
8% | 3.9% | -5 | 13% | O=C(CN1CCN(Cc2ccc(Cl)cc2)CC1)N/N=C/c1ccccc1F
/ | -1.5% | / | -8% | COc1ccc(CNC(=O)CN2C(=O)c3ccccc3S2(=O)=O)cc1
/ | 0.7% | / | 0% | CCN(CC)C(=O)[C@H]1C[C@H](CC(=O)NCCN2CCOCC2)C(=O)N2CCc3c([nH]c4cc(CCC(=O)N(C)C)ccc34)[C@]12C
-40% | -4.4% | -11 | -1% | S=C1NC(c2ccccc2)=NCN1c1ccc(Cl)cc1
-5% | -0.4% | / | -5% | COc1ccccc1NC(=O)CSc1nnnn1-c1ccccc1OC
1% | -1.8% | -6 | 6% | NS(=O)(=O)c1cccc(NC(=O)COC(=O)/C(=C/c2cccs2)c2cccs2)c1
2% | -1.4% | / | -2% | Cc1cccc(/C=C2/Sc3ccc(C(=O)N4CCOCC4)cc3NC2=O)c1
14% | 3.1% | 6 | -1% | COc1cc(NS(=O)(=O)c2ccc(NC(C)=O)cc2)cc(OC)c1
4% | 0.5% | 10 | -1% | O=C(CNC(=O)c1ccc(Cl)cc1)Nc1ccc(S(=O)(=O)Nc2ncccn2)cc1
-6% | -1.0% | 0 | -2% | CCN(CC)C(=O)Cn1ncc2c1-c1ccccc1OC2
-6% | 0.1% | 6 | 4% | CCc1ccccc1NC(=O)c1onc(C)c1Cl
-8% | -1.2% | 3 | -21% | CN(C)S(=O)(=O)Oc1ccc(Cl)cc1C(=O)Nc1ccc(F)cc1F
0% | -3.5% | -1 | -2% | CCOCCCNC(=O)C(c1ccccc1)N(Cc1ccc2c(c1)OCO2)C(=O)CNC(C)=O (stereo not given)
-2% | -0.5% | -4 | -10% | CCN1CCN(Cc2c(C)[nH]c3ccc(C(=O)OC)cc3c2=O)CC1
9% | 1.7% | -5 | 2% | Cc1ccc(F)cc1NC(=O)N1CCCN(C(=O)OC(C)(C)C)CC1
-3% | 0.4% | -7 | -20% | COc1ccc(C2/C(=C(/O)c3ccc(OC(C)C)cc3)C(=O)C(=O)N2CCCN2CCOCC2)cc1 (stereo not given)
-3% | ? | -3 | 26% | COc1ccc(Cl)cc1NC(=O)C1CCCN(S(=O)(=O)c2cccc3nonc23)C1 (stereo not given)
-26% | 1.3% | 9 | 7% | CSc1nc(=O)n(-c2ccccc2)c(C)c1C(C)=O
-38% | -5.5% | 0 | 6% | Cc1ccc(NC(=O)Nc2ncccc2C)cc1
4% | 1.9% | -6 | 1% | Cc1ccc(O)c(CO)n1
-23% | -1.3% | -8 | 1% | CN(C)c1ccc(/C=N\NC(=O)c2csnn2)cc1
1% | 4.9% | 3 | -9% | O=C(Cc1ccc(Cl)cc1)Oc1cccc2cccnc12

# (listing goes on)
miR-21 FLuc | Rango-impB inh | GLA inh pH 4.5 | Rango release inh | mol
7% | 1.0% | -1 | -1% | C[C@@H]1C=C(C(=O)NCc2nc3ccccc3[nH]2)O[C@H](OCc2ccc(CO)cc2)C1
-1% | -1.5% | -11 | -6% | CNC(=S)NNC(=O)c1noc(C)c1C(=O)N1CCN(C(c2ccccc2)c2ccccc2)CC1
-16% | 0.1% | -5 | 2% | CC1CCCC(C)N1C(=O)c1cc(-c2ccc(Cl)c(Cl)c2)on1 (stereo not given)
-16% | -1.7% | 6 | 8% | O=C(COc1ccccc1)N1N=C(c2cccnc2)CC1(O)C(F)(F)F (stereo not given)
0% | -0.5% | 1 | -3% | O=C(NCc1cccs1)[C@@H]1CSC2c3ccccc3C(=O)N21 (stereo not given in full)
/ | 0.5% | / | 1% | CC1(C)c2[nH]c3ccccc3c2C[C@H]2C(=O)N(Cc3ccc(F)cc3)C(=O)N21
-2% | 1.3% | / | 1% | O=C(Nc1ccccc1C(=O)N1CCOCC1)c1ccc(Br)cc1
1% | -2.7% | -1 | -2% | CCOc1ccc(C(=O)Nc2ccccc2C#N)cc1[N+](=O)[O-]
0% | 4.3% | / | -17% | Cc1ccc(S(=O)(=O)NCc2csc(C)n2)cc1
0% | -1.2% | 11 | 14% | COc1cc(/C=C/C(=O)OC(C)C(=O)Nc2c(C)n(C)n(-c3ccccc3)c2=O)ccc1OCC#N (stereo not given)
16% | 1.4% | -5 | 1% | Cn1c(=O)n(C)c2cc(S(=O)(=O)N3CCCc4ccccc43)ccc21
-13% | -1.8% | -10 | 1% | COC(=O)C1=C(C)n2nnnc2NC1c1cc2ccccc2o1 (stereo not given)
/ | 0.5% | / | 3% | COc1cccc(NC(=O)CN(C)C(=O)c2ccc(OCc3ccccc3)c(OC)c2)c1
-11% | -0.6% | -4 | 0% | Fc1cccc2ncnc(OCc3ccccc3)c12
-4% | 4.3% | 5 | -11% | COc1ccc(CCNCc2ccc(OCC(=O)N3CCCCC3)c(OC)c2)cc1OC
-27% | -1.9% | -4 | -15% | O=C(CN1CCCc2ccccc21)NCc1ccccc1Cl
-3% | ? | -3 | ? | CCCc1nc(SCC(=O)c2ccc(OC)cc2)c2ccccc2n1
-20% | 1.7% | -1 | 24% | O=C(Cc1ccc2c(c1)CCCC2)Nc1ccccc1Br
0% | 2.5% | 6 | 5% | O=C(OCN1C(=O)c2ccccc2C1=O)/C(=C\c1ccco1)NC(=O)c1ccccc1
1% | 2.1% | 5 | 14% | O=C(c1ccco1)N1CCN(C(=O)c2cc3c(=O)oc4ccccc4c3s2)CC1
4% | 0.1% | 10 | 2% | CC(=O)Nc1ccc(S(=O)(=O)Nc2ccc(C)c([N+](=O)[O-])c2)cc1
1% | 0.1% | / | -1% | CN(CC1CCCN(CCc2cccc(C(F)(F)F)c2)C1)C(=O)c1ccc2nc[nH]c2c1 (stereo not given)
6% | 7.1% | -9 | -2% | CCCCc1nc2ccccc2c(NC(=O)CN(CC)CC)c1CCC
0% | -2.1% | 1 | -7% | Cc1cc2c(c(SCC(=O)NCc3ccccc3Cl)n1)C(=O)OC2
/ | -1.8% | / | -9% | NN=C(c1ccccc1)c1ccccc1

# The list goes on.
miR-21 FLuc | Rango-impB inh | GLA inh pH 4.5 | Rango release inh | mol
0% | -4.8% | 3 | -11% | O=C(COC(=O)C12CC3CC(CC(C3)C1)C2)Nc1ccc([N+](=O)[O-])cc1Br
2% | 8.1% | ? | 3% | CC12CCC(C(=O)Nc3ccc(SC(F)F)cc3)(CC1=O)C2(C)C (stereo not given)
13% | -1.7% | -18 | 12% | C=CCN1C(=O)C(CC(=O)Nc2ccccc2)SC1=Nc1ccc(S(N)(=O)=O)cc1 (stereo not given)
-2% | 0.1% | 7 | 11% | CC1Cc2ccccc2N1C(=O)CSc1nc(-c2ccco2)cc(C(F)(F)F)n1 (stereo not given)
3% | 6.3% | / | -11% | CN(Cc1ccccc1)S(=O)(=O)c1ccc(OCC(=O)NCc2ccncc2)cc1
-7% | -5.3% | -5 | -12% | COc1ccc(C(=O)OC2CCN(c3ncc(C(F)(F)F)cc3Cl)CC2)cc1
0% | 0.3% | / | -16% | CC1CN(C(=O)Nc2ccc(F)cc2F)CC(C)O1 (stereo not given)
11% | -3.8% | -9 | 2% | CC(C)C(NC(=O)/C=C/c1ccc(F)cc1)C(C)C
-38% | 6.0% | 2 | -18% | CCOC(=O)c1sc(N(Cc2ccccc2)C(=O)CSc2nnc(C3CC3)n2N)nc1C
-1% | ? | -8 | ? | C=CCn1c(=O)/c(=C/c2ccc(O)cc2)s/c1=C(/C#N)c1nnc2n1CCCCC2
/ | ? | / | 17% | Cc1cc(NC(=O)CSCC(=O)Nc2ccccc2Oc2ccccc2)no1
0% | 5.0% | 5 | 5% | Cc1cc(C)nc(N/N=C/c2cc3c(cc2[N+](=O)[O-])OCO3)n1
0% | -0.2% | / | 1% | S=c1[nH]nc(C2CCCCC2)n1/N=C/c1ccc(Br)cc1
2% | -0.1% | / | 7% | Cc1cc[n+](CCc2ccccc2)cc1C

# Compound profiles (already shown):
# Results for O=C(N/C=C\n1cnc2cc(C(F)(F)F)ccc21)c1ccc([N+](=O)[O-])cc1 : miR-21 FLuc = 0%; Rango-impB inh = -1.3%; GLA inh pH 4.5 = -11; Rango release inh = -1%
# Results for Cc1cc[n+](CCc2ccccc2)cc1C : miR-21 FLuc = 2%; Rango-impB inh = -0.1%; GLA inh pH 4.5 = /; Rango release inh = 7%
# Results for S=c1[nH]nc(C2CCCCC2)n1/N=C/c1ccc(Br)cc1 : miR-21 FLuc = 0%; Rango-impB inh = -0.2%; GLA inh pH 4.5 = /; Rango release inh = 1%

# Screening data from PubChem BioAssay.
